HSD17B inh: blocks hydroxysteroid 17-beta dehydrogenase activity; 75,000 compounds, 7.6% hits; recombinant HSD17B10, NADH fluorescence kinetic; many of its hits are not listed in these tables; Q99714; Potency, µM (titrated, usually from 57.1 µM), for inactives: top-dose activity change, negative = inhibition, most hits filed as inhibitors; active means well fitted inhibition curve with a large enough effect; inconclusive means small, poorly fitted or top-dose-only effect; inactive means no such curve, though single readings can be large or run the other way;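 further: the protocol describes HADH2 (HSD17B10) and not the HSD17B4 of the title; nearly all actives have a fitted effect of over 70% in size; most hits overshoot -100% by far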
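Enzyme plus compound, 15 min room temperature; substrate mix added (NAD+ 1 mM, beta-hydroxybutyryl-CoA 90 uM final); plates read kinetically for NADH fluorescence. HADH2 was His-tagged, E. coli-derived, 20 nM.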
* marks the source's active call; other numbers are inactive results; [ ] = another dose, or the depositor's remark. On the % scale 0 is the no-effect control and ±100 the full control effect; potency means the concentration at half of the fitted maximal effect. A portion of the library. The share of hits here may be higher or lower than overall.

CC(C)[C@H](N)c1nnc(SCc2ccc(Cl)cc2)o1 was read as HSD17B inh -4.2%.
For Cc1cccc(-c2nc(CN3CCCC(C(=O)NC4CCCCCC4)C3)c(C)o2)c1 (stereo unspecified) the results were HSD17B inh 6.6%.
C[C@@H]([C@H](O)c1ccc(O)cc1)N1CCC(Cc2ccccc2)CC1 was read as HSD17B inh 13.9%.
For Cc1oc(-c2ccccc2F)nc1CN1CCC(C(=O)NC2CC2)CC1 the results were HSD17B inh 2.3%.
`CCOC(=O)c1ccc(NC(=O)CSc2nnnn2CCCO)cc1` gave HSD17B inh 8.1%.
`COc1ccccc1NC(=O)N(C1CCCC1)C1CCN(C(C)=O)CC1` gave HSD17B inh 6.2%.
For O=C(Cc1cn2ccsc2n1)Nc1ccccn1 the results were HSD17B inh 6.5%.
For Cn1c(SCc2c(F)cccc2Cl)nnc1-c1cccs1 the results were HSD17B inh 0.2%.
For Cc1cc(NC(=O)C2CCCN(S(=O)(=O)c3cnc[nH]3)C2)ccc1Br (stereo unspecified) the results were HSD17B inh 7.6%.
`Cc1cc(C)nc(NS(=O)(=O)c2ccc(Br)cc2)n1` gave HSD17B inh -13.1%.
CCN(CC)C(=O)C(C)OC(=O)c1ccc(O)cc1 (stereo unspecified) was read as HSD17B inh 2.3%.
`CCOC(=O)c1c(C)[nH]c(C(=O)COC(=O)CSCC(=O)N(CC)CC)c1C` gave HSD17B inh -5.1%.
Screening Cn1c(CCNC(=O)c2ccco2)nc2cc(NS(=O)(=O)c3ccccc3)ccc21 returned HSD17B inh -5.1%.
For CCOC(=O)c1cc(C)n(-n2cnnc2)c1C the results were HSD17B inh 15.8%.
For C=CCN1CC(c2nc3ccccc3n2CCOc2ccccc2)CC1=O (stereo unspecified) the results were HSD17B inh -2.2%.
`COn1c(-n2nc(C)cc2C)nc2ccccc2c1=O` gave HSD17B inh -2.4%.
`Cn1c(N)nc2c(nc(OCc3ccccc3)n2[C@@H]2O[C@H](CO)[C@@H](O)[C@@H]2O)c1=O` gave HSD17B inh 3.5%[11.4 µM].
Screening CN(CCNC(=O)c1cccc(N2CCCC2=O)c1)Cc1ccccc1 returned HSD17B inh -4.9%.
COCCCNC(=O)CCc1nc2cccnc2n1Cc1ccccc1 was read as HSD17B inh -2.6%.
`COCCNC(=O)CSc1nc2nc(C)cc(C)n2n1` gave HSD17B inh -17.1%.
`O=c1[nH]c(=S)[nH]c(-c2ccccc2)c1Cc1c(O)ccc2ccccc12` gave HSD17B inh 5.01µM*.
CC1(C)CC(=O)c2c(-c3cccnc3)n[nH]c2C1 was read as HSD17B inh 4.6%.
`CC(C)C(C(=O)NCC1CCCO1)N(Cc1ccco1)C(=O)CNS(=O)(=O)c1ccc(F)cc1` (stereo unspecified) gave HSD17B inh 7.1%.
CC(=O)NC(Cc1cc(C)ccc1C)C(=O)N1CCN(C(=O)Nc2ccc(C(C)=O)cc2)CC1 (stereo unspecified) was read as HSD17B inh -3.7%.
`c1ccc(CN2COc3c(ccc4c5c(ccc34)CN(Cc3ccccc3)CO5)C2)cc1` gave HSD17B inh 2.3%[11.4 µM].
Screening COC(=O)c1cc2nc(-c3ccccc3)cc(C)n2n1 returned HSD17B inh 31.6µM*.
For O=c1oc(-c2cccs2)nc2scc(-c3cccs3)c12 the results were HSD17B inh 15.8µM*.
Screening C=CCn1c(N)nc2ccccc21 returned HSD17B inh 4.9%.
Screening CCCCC(=O)OC1CCC2C3CCc4cc(O)ccc4C3CC[C@]12C (stereo partly specified) returned HSD17B inh -6.3%.
For COc1ccccc1C(=O)Nc1ccc(S(=O)(=O)N2CCOCC2)cc1 the results were HSD17B inh 4.5%.

Retrieved by structure from the entries so far, two records:
CC1(C)CC(=O)c2c(-c3cccnc3)n[nH]c2C1 was read as HSD17B inh 4.6%.
`Cn1c(N)nc2c(nc(OCc3ccccc3)n2[C@@H]2O[C@H](CO)[C@@H](O)[C@@H]2O)c1=O` gave HSD17B inh 3.5%[11.4 µM].

(listing goes on)
`Cc1ccc(-n2nc(C)c3c2OC(N)=C(C#N)C3c2ccco2)cc1` (stereo unspecified) gave HSD17B inh inconclusive.
COc1ccc(-n2nnnc2SCC(=O)c2cc3ccccc3o2)cc1 was read as HSD17B inh -16.4%.
For CN(C)S(=O)(=O)N1CCN(CC(O)COc2ccc(C(=O)c3ccccc3)cc2)CC1 (stereo unspecified) the results were HSD17B inh 0.8%.
COc1ccc(CNC(=O)C(NS(=O)(=O)c2ccc3c(c2)CCCN3C(C)=O)C(C)C)cc1 (stereo unspecified) was read as HSD17B inh 9.6%.
Screening Cc1nc(N2CCOCC2)c2nc(-c3ccccc3)n(CCN3CCOCC3)c2n1 returned HSD17B inh 25.1µM*.
`CC(C)C(c1nnnn1CCc1ccccc1)N1CCOCC1` (stereo unspecified) gave HSD17B inh -5.1%.
COc1ccc(C(=O)N2CCN(S(=O)(=O)c3ccccc3)CC2)c(OC)c1 was read as HSD17B inh 9.7%.
For NNC(=O)CCc1ccc2ccc3ccccc3c2c1 the results were HSD17B inh 3.4%[11.4 µM].
`c1ccc(-c2cccc(N3CC[C@@]4(CCCNC4)C3)c2)cc1` gave HSD17B inh 25.1µM*.
`CC(C)(C)c1ccc(C(=O)Nc2nonc2-c2nc3ccccc3[nH]2)cc1` gave HSD17B inh -17.5%.
Screening Cc1noc(/C=C/N(C)C)c1S(=O)(=O)N1CCCC(C(=O)NCc2ccc(Cl)cc2)C1 (stereo unspecified) returned HSD17B inh -1.1%.
For S=c1[nH]ncc2ccccc12 the results were HSD17B inh 4.1%.
`CCCn1nnc(NC(=O)c2cc(Br)ccc2OC)n1` gave HSD17B inh 0.8%.
O=c1nc2n(c3sc4c(c13)CCC4)Cc1ccccc1-2 was read as HSD17B inh 25.1µM*.
O=C(O)c1ccc2c(c1)N(Cc1ccccc1)C(=O)c1ccccc1S2=O (stereo unspecified) was read as HSD17B inh -3.3%.
Screening CCC(=O)/C=C1\Sc2ccc(OC)cc2N1CCO returned HSD17B inh inconclusive.
`COc1ccc(NC(=O)C2CC2)cc1-n1cnnn1` gave HSD17B inh -2.9%.
Screening O=C(NC1CCCC1)C1CCCN1C(=O)Nc1ccccc1 (stereo unspecified) returned HSD17B inh 13.2%.
COC(=O)C1CCN(C(=O)c2ccccc2Oc2ccccc2)CC1 was read as HSD17B inh -1.3%.
C=CCSC1=N/C(=C\c2ccc3c(c2)OCO3)C(=O)S1 was read as HSD17B inh -11.7%.
Screening O=C(O)CN1C(=O)O[C@@H](c2ccccc2)C1=O returned HSD17B inh -0.1%[11.4 µM].
Screening Cc1cc(C)c(NC(=O)c2ccc(S(=O)(=O)N3CCOCC3)cc2)c(C)c1 returned HSD17B inh 2.5%.
O=C(NCCc1ccccc1)c1cc2ncc(Br)cn2n1 was read as HSD17B inh 20µM*.
For Cc1ccc(NC(=O)CN(C)c2ccc(S(=O)(=O)N3CCN(C)CC3)cn2)cc1 the results were HSD17B inh 5.0%.
`CCCCC(=O)Nc1ccc(C(=O)Nc2ccc(S(=O)(=O)N3CCCC3)cc2)cc1` gave HSD17B inh -10.5%.
For O=C1c2ccccc2C(=O)N1Cc1nc(-c2ccccn2)no1 the results were HSD17B inh 8.4%.
For C[C@@H](C(=O)NCc1cccc2ccccc12)[C@H]1C[C@]1(C)[C@H](NC(=O)OCc1ccccc1)c1ccccc1 the results were HSD17B inh 31.6µM*.
O=C(CCC1CCCCC1)Nc1c2c(nn1-c1ccc(F)cc1)CS(=O)C2 (stereo unspecified) was read as HSD17B inh 6.9%.
`CCOCCCn1c(C)nc2c(c1=O)c1nc3ccccc3nc1n2CCC1=CCCCC1` gave HSD17B inh 31.6µM*.
`O=C1CC(SCc2nc3ccccc3[nH]2)C(=O)N1c1ccc(F)cc1` (stereo unspecified) gave HSD17B inh 0.8%.

2 consecutive records already listed, for reference:
CC(C)[C@H](N)c1nnc(SCc2ccc(Cl)cc2)o1 was read as HSD17B inh -4.2%.
For Cc1cccc(-c2nc(CN3CCCC(C(=O)NC4CCCCCC4)C3)c(C)o2)c1 (stereo unspecified) the results were HSD17B inh 6.6%.

Sorted by molar mass (falling): part of the list above.
For COc1ccccc1C(=O)Nc1ccc(S(=O)(=O)N2CCOCC2)cc1 the results were HSD17B inh 4.5%.
COCCCNC(=O)CCc1nc2cccnc2n1Cc1ccccc1 was read as HSD17B inh -2.6%.
For Cn1c(SCc2c(F)cccc2Cl)nnc1-c1cccs1 the results were HSD17B inh 0.2%.
C[C@@H]([C@H](O)c1ccc(O)cc1)N1CCC(Cc2ccccc2)CC1 was read as HSD17B inh 13.9%.
For CCOC(=O)c1cc(C)n(-n2cnnc2)c1C the results were HSD17B inh 15.8%.
Screening C=CCn1c(N)nc2ccccc21 returned HSD17B inh 4.9%.

(listing goes on)
Screening CCOC(=O)NC[C@H](Cc1ccc(OCCc2nc(-c3ccccc3)oc2C)cc1)N/C(C)=C\C(=O)c1ccc(C(F)(F)F)cc1 returned HSD17B inh inconclusive.
Screening CC(C)n1nnnc1SCC(=O)NCc1cccs1 returned HSD17B inh 0.3%.
For CCOC(=O)C1CCN(C(=O)COc2ccc(Cl)cc2Cl)CC1 the results were HSD17B inh 3.4%.
c1ccc2c3c([nH]c2c1)-c1[nH]ncc1CC3 was read as HSD17B inh 12.6µM*.
`O=C(Cn1ncc2c(=O)oc3ccccc3c21)NCC1CCCO1` (stereo unspecified) gave HSD17B inh -0.7%.
`CC(=O)c1cc(-c2ccccc2)n(CCC(=O)NCc2cccs2)c1C` gave HSD17B inh 7.3%.
COc1ccc(-c2nnc(SCC(=O)N3CCCCC3)o2)c(OC)c1 was read as HSD17B inh 2.3%.
For COc1ccc(-c2cc(N)n(CCC#N)n2)c(OC)c1 the results were HSD17B inh -26.4%.
For C=CCn1c(CCC(=O)O)ccc1-c1ccc(OC)cc1 the results were HSD17B inh inconclusive.
`CS(=O)(=O)c1ccc(Cl)c(C(=O)O)c1` gave HSD17B inh 0.6%.
COc1ccc(OC)c(C2C(C(=O)Nc3cccnc3)=C(C)NC3=C2C(=O)CCC3)c1 (stereo unspecified) was read as HSD17B inh -19.1%.
Screening O=C(NCCN1CCOCC1)c1cc(-c2ccco2)on1 returned HSD17B inh -1.9%.
Screening C=CCOC(=O)CCC(=O)Nc1cccc2ccccc12 returned HSD17B inh 1.0%.
Screening Brc1ccc(-c2nn3c(-c4ccco4)nnc3s2)o1 returned HSD17B inh inconclusive.
`O=C(c1cccnc1)N1C2CCC1CC(O)(c1ccc(F)cc1)C2` (stereo unspecified) gave HSD17B inh 2.4%.
COCC(=O)N1CCC[C@@]2(CCN(C(=O)Nc3cccc(C#N)c3)C2)C1 was read as HSD17B inh 2.6%.
For COC(=O)[C@@]1(Cc2ccc(OC)cc2)[C@H]2c3cc(C(=O)N4CCCC4)n(CCn4cc([N+](=O)[O-])nc4C)c3C[C@H]2CN1C(=O)c1ccccc1 the results were HSD17B inh 2.1%.
O=C1C2CCCN2C(c2ccccc2F)N1c1cccc(Cl)c1 (stereo unspecified) was read as HSD17B inh 2.2%.
Cc1nn(C)cc1CNC(=O)Nc1ccc(Br)cc1Cl was read as HSD17B inh 0.1%.
`Brc1ccc(-c2nc(-c3ccccc3)no2)o1` gave HSD17B inh 0.2%.
For NCC1O[C@@H](O[C@H]2C(O)C(O[C@@H]3C(O[C@H]4OC(CO)C(O)C(O)C4N)C(N)CC(N)[C@H]3O)O[C@@H]2CO)C(N)C(O)C1O (stereo partly specified) the results were HSD17B inh 6.9%.
CCOC(=O)CCn1cc(F)c(=O)n(Cc2ccccc2)c1=O was read as HSD17B inh 0.6%.
Screening CCCn1nnnc1SCC(=O)NCc1ccccc1 returned HSD17B inh -3.9%.
For c1ccc(-c2ccccc2OCCn2cncn2)cc1 the results were HSD17B inh 1.4%.
For CC(=O)Nc1ccc(Cc2ccncc2)cc1 the results were HSD17B inh 11.1%.
CCOC(=O)CNC(=O)CSc1ncnc2c1cnn2-c1ccc(OC)cc1 was read as HSD17B inh -2.7%.
`Cc1oc(-c2ccc(Cl)cc2)cc1-c1nn2c(-c3ccco3)nnc2s1` gave HSD17B inh inconclusive.
`Cc1ccc(-c2cc(C(F)(F)F)n3nc(C(=O)N4CCCC4)cc3n2)cc1` gave HSD17B inh 20µM*.
For COc1cccc(OCC(O)CN(CCO)Cc2ccccc2)c1 (stereo unspecified) the results were HSD17B inh -2.0%.
COc1ccc(OC)c(C(=O)COC(=O)c2c(OC)cccc2OC)c1 was read as HSD17B inh 6.0%.
`COC(=O)[C@@]1(Cc2ccc(F)cc2)[C@H]2c3cc(C(=O)N4CCCC4)n(CCc4ccc(O)c(O)c4)c3C[C@H]2CN1C(=O)c1ccccc1` gave HSD17B inh 20µM*.
CC(=O)Nc1ccc(Nc2ncnc3c2cnn3-c2cccc(C)c2)cc1 was read as HSD17B inh 26.0%.
For O=C(Cn1nnc2ccccc2c1=O)N1CCCc2ccccc21 the results were HSD17B inh 0.4%.
Screening CSc1nc(NC(C)C)nc(N2CCOCC2)n1 returned HSD17B inh 8.5%.
For COc1cc(C(=O)Nc2nc3ccccc3[nH]2)cc(OC)c1OC the results were HSD17B inh -17.9%.
O=C(C1CCN(S(=O)(=O)c2cccs2)CC1)N1CCc2ccccc2C1 was read as HSD17B inh 1.6%.
O=S(=O)(c1ccccc1)N1CCC2(CCN(c3ncccn3)CC2)CC1 was read as HSD17B inh -14.3%.
COc1ccccc1N1CCN(C(=O)c2cccc(N3C(=O)NC4CC3(C)Oc3ccccc34)c2)CC1 (stereo unspecified) was read as HSD17B inh 0.6%.
Screening COC(=O)c1[nH]c2cccc(OC)c2c1NC(=O)CCN1CC(C)CC(C)C1 (stereo unspecified) returned HSD17B inh 31.6µM*.
